MLL AF4-AF9 inh = inhibitors of AF4 peptide binding to AF9, primary screen, biochemical, AlphaScreen, biotin-AF4 peptide, FLAG-AF9, single point | inhibition, % at 10 µM | 350,000 compounds, 0.47% hits;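 active means every replicate reaching a set inhibition limit, whatever the replicate mean, cut at about 25% in these data; inconclusive means mean inhibition reaches that limit but some replicates miss it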;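 further: 0% = plate neutral control median and 100% = total signal loss; the record names both 10 and 1 µM as test concentration; the first replicate is given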
Target sequence (P42568 whole entry, looked up): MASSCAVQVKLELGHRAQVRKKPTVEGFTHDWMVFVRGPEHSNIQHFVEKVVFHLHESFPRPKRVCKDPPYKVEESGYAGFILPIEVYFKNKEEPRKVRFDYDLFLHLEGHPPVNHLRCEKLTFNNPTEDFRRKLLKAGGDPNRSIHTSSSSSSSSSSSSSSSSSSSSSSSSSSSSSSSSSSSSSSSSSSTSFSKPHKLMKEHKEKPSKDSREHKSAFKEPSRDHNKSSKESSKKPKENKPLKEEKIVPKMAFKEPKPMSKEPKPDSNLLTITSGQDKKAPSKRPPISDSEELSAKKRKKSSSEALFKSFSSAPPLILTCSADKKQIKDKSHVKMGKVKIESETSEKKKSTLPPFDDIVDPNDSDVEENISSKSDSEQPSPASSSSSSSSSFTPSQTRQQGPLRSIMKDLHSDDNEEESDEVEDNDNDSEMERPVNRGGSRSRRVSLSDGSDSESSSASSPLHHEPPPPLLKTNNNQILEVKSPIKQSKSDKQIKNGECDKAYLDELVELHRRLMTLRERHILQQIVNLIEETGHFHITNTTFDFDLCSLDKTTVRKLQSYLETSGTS
A1 inh = caspase 3/7 activation in MEF A1-2A-BIM cells, primary screen, A1 inhibitor project, cell-based, luminescence, HTS | 330,000 compounds, 0.066% hits | AID 2462, 2010 | caspase activation, % (no concentration beside the values) | Caspase-Glo 3/7 luminescence, 3 h; percent of clofoctol response, vehicle zero;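 active means over half of replicate activation scores above 10%, or exactly half above 10 with the replicate mean above 10; inconclusive means replicate mean below 10 yet half the replicates above 10; inactive means over half of replicates below 10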;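 further: wells of about 30 µL received 50 nL stock; many hits fall short of the cut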
Calb FLC = C. albicans growth inhibition with fluconazole, primary screen, CaCi-2 strain, Alamar Blue fluorescence; growth inhibition, % (test concentration not listed); C. albicans CaCi-2 (fluconazole-resistant clinical isolate) + fluconazole, 48 h; 300,000 compounds, 0.57% hits; AID 1979, 2009;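 active means most replicates above 75%; inconclusive means exactly half above 75%; inactive means most below 75%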;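 further: all wells also contain fluconazole at 8 µg/ml as a sub-toxic cotreatment; 0% = median of DMSO wells and 100% = median of geldanamycin control wells; wells of about 8 µL received 7.5 nL stock; the first replicate is given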
LANA-H2A inh = blockers of LANA interaction with H2A/H2B – biochemical, FP readout, HTS, primary screen; Protein LANA1 (Human herpesvirus 8 type P (isolate GK18)), Q9QR71; cell-free LANA-H2A/H2B peptide, fluorescence polarization; inhibition, % (test concentration not listed); 320,000 compounds, 0.6% hits; AID 2629, 2010; in the data active means inhibition mostly above about 10%, no sharp cut-off; inactive means mostly below about 6.7%;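 further: stock transfer was 7.5 nL into about 10 µL; 0% = median of vehicle wells and 100% = median of positive control wells; one replicate is shown; the record names a cut of 25% in any replicate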
Beta cell apopt = inhibitors of cytokine-induced beta cell apoptosis, primary screen, luminescence; INS-1E cytokine-induced death, ATP luminescence, 48 h; percent of positive-control rescue, neutral wells zero; protection from apoptosis, % (no concentration beside the values); 300,000 compounds, 0.8% hits;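 active means all replicates at 75% or more, or half of them and the mean; inconclusive means half reach 75% but not the mean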;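 further: 0% = cytokine-treated negative control wells and 100% = positive control rescue; higher means more ATP so stronger rescue from cytokine killing; wells of about 40 µL received 100 nL stock; the first replicate is given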
T cruzi repl = inhibitors of intracellular T. cruzi growth, primary screen, luminescence, NIH3T3 host cells | T. cruzi beta-gal in NIH3T3, 90 h | inhibition, % (test concentration not listed) | 300,000 compounds, 1.4% hits | AID 1885, 2009;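 active means mean inhibition across valid replicates above about 55%, limit read from the data; inconclusive means mean below that limit but half or more replicates reach it; inactive means mean below it, under half of replicates reach it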;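 further: signal also drops with host cell toxicity which is not excluded here; 0% = plate median of DMSO wells and 100% = zero luminescence signal; higher percent means less beta-gal luminescence so fewer parasites; stock transfer was 50 nL into about 50 µL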
Vif TR-FRET = inhibitors of Vif binding to APOBEC3G peptide, primary screen, biochemical, TR-FRET, GST-Vif 1-94, biotin-A3G peptide, dose response retest (AID 1117319); Virion infectivity factor (Human immunodeficiency virus type 1 group M subtype B (isolate …; TR-FRET GST-Vif / biotin-A3G peptide binding; higher % means a stronger effect; test concentration not given here; strong numbers were not always called active; inhibition, %, or IC50 in µM where a hit was titrated; 260,000 compounds, 0.57% hits;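 active means above the screen mean plus three standard deviations and confirmed in dose response; inconclusive means results disagree or hit not tested in dose response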;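 further: Vif residues 1-94 fused to GST binding biotinylated APOBEC3G peptide 110-148; 0% = full assay without inhibitor and 100% = GST in place of GST-Vif; retest series ran down from 100 µM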
RanGTP-Impb inh = inhibitors of RanGTP-importin-beta interaction, primary screen, biochemical, FRET, CFP-Ran, YFP-importin-beta, homogeneous; cell-free CFP-Ran/YFP-importin-beta FRET ratio; Ran GTPase (GTP-bound) - importin-beta complex; inhibition, % (test concentration not listed); 300,000 compounds, 1.1% hits;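 active means most replicates above 15%; inconclusive means exactly half above 15%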;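 further: 0% = DMSO wells and 100% = Ran loaded with GDP instead of GTP; wells of about 40 µL received 100 nL stock; the first replicate is given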
Starred values were filed as active, the others as inactive; & = joins results of further samples.

How did CCOCCn1c(=O)c2c(nc3n2CCCN3CCc2ccccc2)n(C)c1=O do in these assays?
MLL AF4-AF9 inh: 1.8; A1 inh: 1.7; Calb FLC: -11; LANA-H2A inh: -1.4; Beta cell apopt: -1; T cruzi repl: -22; RanGTP-Impb inh: 1.2

Results for O=C(O)C1=C[C@H](c2ccc(Br)cc2)C[C@H](OCc2ccc(CO)cc2)O1 ?
MLL AF4-AF9 inh: 1.2&-3.0; A1 inh: 0.7; Calb FLC: -9; LANA-H2A inh: -4.4; Beta cell apopt: -4; T cruzi repl: -25; RanGTP-Impb inh: -0.5

What do the screens show for `CCOc1ccc(NC(=O)CN(C)C(=O)/C=C/c2ccc(S(=O)(=O)N3CCCCCC3)cc2)cc1OCC`?
MLL AF4-AF9 inh: 6.5; A1 inh: 0.8; Calb FLC: 2; LANA-H2A inh: 2.7; Beta cell apopt: 2; T cruzi repl: 5; Vif TR-FRET: 8%; RanGTP-Impb inh: -4.2

What do the screens show for `CSCCC(NC(=O)c1ccco1)C(=O)OCc1cc([N+](=O)[O-])cc2c1OCOC2` (stereo not drawn)?
MLL AF4-AF9 inh: 3.6; A1 inh: 0.9; Calb FLC: 1; LANA-H2A inh: -2.9; Beta cell apopt: -1; T cruzi repl: 14; Vif TR-FRET: -5%; RanGTP-Impb inh: 0.2

What do the screens show for `CC(C)c1nnc(NC(=O)CCC(=O)Nc2ccc(F)cc2)s1`?
A1 inh: 2.0; Calb FLC: 0; LANA-H2A inh: -5.2; Beta cell apopt: -1; T cruzi repl: -12; Vif TR-FRET: -2%; RanGTP-Impb inh: 7.0

What do the screens show for `COC(=O)c1ccc(COc2ccc3c(C)c(C)c(=O)oc3c2)o1`?
A1 inh: -1.8; Calb FLC: 9; LANA-H2A inh: -2.6; Beta cell apopt: -8; T cruzi repl: 8; Vif TR-FRET: -5%; RanGTP-Impb inh: -2.4

Results for Cc1cc(C(=O)NN=C2CCCCCCC2)c2ccccc2n1 ?
MLL AF4-AF9 inh: 5.4; A1 inh: 1.0; Calb FLC: 3; LANA-H2A inh: -3.8; Beta cell apopt: -2; T cruzi repl: -9; RanGTP-Impb inh: 0.2

What do the screens show for `COC(=O)Nc1nc(C)c(C(=O)c2ccccc2)s1`?
A1 inh: 0.0; Calb FLC: 21; LANA-H2A inh: -4.9; Beta cell apopt: 8; T cruzi repl: 0; Vif TR-FRET: -24%; RanGTP-Impb inh: 4.0

Results for COc1cc(NS(=O)(=O)c2cc(C(=O)NCCc3ccccn3)ccc2OC)cc(OC)c1 ?
MLL AF4-AF9 inh: 5.6; A1 inh: inconclusive; LANA-H2A inh: 5.8; Beta cell apopt: -8; Vif TR-FRET: 3%

Results for CCC(C(=O)OCC(=O)Nc1c(C)nn(-c2ccccc2)c1C)c1ccccc1 (stereo not drawn) ?
MLL AF4-AF9 inh: -3.8; A1 inh: -1.2; Calb FLC: 0; LANA-H2A inh: -3.6; Beta cell apopt: 2; T cruzi repl: -11; Vif TR-FRET: -5%; RanGTP-Impb inh: 10

What do the screens show for `N=C1C(c2nc3ccccc3s2)=C(O)CN1NC(=O)c1ccccc1[N+](=O)[O-]`?
MLL AF4-AF9 inh: -1.7; A1 inh: 0.1; Calb FLC: 14; LANA-H2A inh: -3.7; Beta cell apopt: -1; T cruzi repl: -6; Vif TR-FRET: inconclusive; RanGTP-Impb inh: 0.8

Results for CCC(=O)Nc1c(-c2ccc(Cl)cc2)c(=O)c2ccccc2n1C ?
MLL AF4-AF9 inh: -1.7; A1 inh: 0.4; Calb FLC: 3; LANA-H2A inh: -0.2; Beta cell apopt: 1; T cruzi repl: 2; Vif TR-FRET: -5%; RanGTP-Impb inh: 2.2

Results for CC1=C([N+](=O)[O-])C(c2ccccc2)C2=C(N1)c1ccccc1C2=O (stereo not drawn) ?
A1 inh: -0.4; Calb FLC: 0; LANA-H2A inh: -1.8; Beta cell apopt: 16; T cruzi repl: 12; Vif TR-FRET: 4%; RanGTP-Impb inh: -0.6

Results for O=C(NCc1ccccn1)C1CCN(S(=O)(=O)c2ccccc2F)CC1 ?
MLL AF4-AF9 inh: -2.1; A1 inh: -0.8; LANA-H2A inh: 2.3; Beta cell apopt: -1

What do the screens show for `O=C1Nc2ccc([N+](=O)[O-])cc2OC1CCN1CCN(Cc2ccccc2)CC1` (stereo not drawn)?
MLL AF4-AF9 inh: 9.5; A1 inh: 0.5; Calb FLC: 3; LANA-H2A inh: 1.7; Beta cell apopt: -6; T cruzi repl: 4; Vif TR-FRET: -2%; RanGTP-Impb inh: -0.5

What do the screens show for `Cc1cccc(C(=O)OC2CCOC2=O)c1C` (stereo not drawn)?
MLL AF4-AF9 inh: 0.6; A1 inh: 0.0; Calb FLC: -1; LANA-H2A inh: -0.3; Beta cell apopt: -3; T cruzi repl: -11; RanGTP-Impb inh: 0.5

How did CC(C)=CC[N+]1(C)CCCCC1 do in these assays?
MLL AF4-AF9 inh: -2.0; A1 inh: -0.1; LANA-H2A inh: -2.0; Beta cell apopt: -3; T cruzi repl: -3

Results for CCCCCCCCNC(=O)C(CCC(=O)OCc1ccccc1)NC(C)=O (stereo not drawn) ?
A1 inh: -0.5; Calb FLC: 5; LANA-H2A inh: -5.6; Beta cell apopt: -7; T cruzi repl: -14; Vif TR-FRET: 0%; RanGTP-Impb inh: -1.9

Results for COc1ccc(NC(=O)/C=C/c2cc(OC)c(OC)c(OC)c2)cn1 ?
MLL AF4-AF9 inh: -2.0; A1 inh: -0.3; Calb FLC: -5; LANA-H2A inh: 0.7; Beta cell apopt: 2; T cruzi repl: -6; Vif TR-FRET: -10%; RanGTP-Impb inh: -3.6

What do the screens show for `O=c1oc(Nc2ccccc2Cl)nc2ccccc12`?
MLL AF4-AF9 inh: -0.1; Calb FLC: -5; T cruzi repl: 0; Vif TR-FRET: 0%; RanGTP-Impb inh: 1.4

What do the screens show for `COc1ccc(CC(=O)Nc2nc3ccccc3[nH]2)cc1`?
MLL AF4-AF9 inh: -56; A1 inh: -0.4; Calb FLC: 4; LANA-H2A inh: 3.5; Beta cell apopt: 4; T cruzi repl: -18; RanGTP-Impb inh: 3.7

How did CCOC(=O)c1[nH]cnc1C(=O)Nc1ccncc1 do in these assays?
A1 inh: -0.4; Calb FLC: 1; LANA-H2A inh: -0.8; Beta cell apopt: -2; T cruzi repl: -13; Vif TR-FRET: 12%; RanGTP-Impb inh: 2.2

Results for CCCC1(C)Nc2ccccc2-c2nc3ccccc3n21 (stereo not drawn) ?
A1 inh: -5.4; Calb FLC: 33; LANA-H2A inh: -0.5; Beta cell apopt: 6; T cruzi repl: 1; Vif TR-FRET: -3%; RanGTP-Impb inh: inconclusive

Results for CC(C)NC(=O)CCn1ccc2cc(S(=O)(=O)N3CCCC3)ccc21 ?
MLL AF4-AF9 inh: 0.7; A1 inh: -0.2; Calb FLC: 0; LANA-H2A inh: 0.3; Beta cell apopt: 0; T cruzi repl: -2; RanGTP-Impb inh: 4.1

How did CCOC(=O)C1CCCN(C(=O)COC(=O)c2cc(=O)c3ccccc3o2)C1 (stereo not drawn) do in these assays?
A1 inh: -0.4; Calb FLC: -9; LANA-H2A inh: -1.4; Beta cell apopt: -5; T cruzi repl: -18; Vif TR-FRET: 29%; RanGTP-Impb inh: 1.8

What do the screens show for `Cc1ccc(CC(=O)NC2CCN(C)CC2)cc1`?
MLL AF4-AF9 inh: -0.1; A1 inh: -0.7; Calb FLC: -6; LANA-H2A inh: 2.7; Beta cell apopt: -5; T cruzi repl: 24; RanGTP-Impb inh: 0.7

Results for COc1ccccc1NC(=O)C1CCCN(S(=O)(=O)c2ccc3c(c2)CC(C)N3C(C)=O)C1 (stereo not drawn) ?
MLL AF4-AF9 inh: -0.9; A1 inh: -0.3; Calb FLC: -22; LANA-H2A inh: 8.2; Beta cell apopt: 1; T cruzi repl: 5; RanGTP-Impb inh: -3.4

What do the screens show for `CC(=O)c1ccc(NC(=O)CSc2ccc(-c3ccc4c(c3)OCO4)nn2)cc1`?
A1 inh: -0.4; Calb FLC: -15; LANA-H2A inh: -0.5; Beta cell apopt: 5; T cruzi repl: -5; RanGTP-Impb inh: -0.9

Results for Cc1c([N+](=O)[O-])nnn1-c1cc(Cl)cc(Cl)c1 ?
A1 inh: 0.3; Calb FLC: 2; LANA-H2A inh: -4.2; Beta cell apopt: -2; T cruzi repl: 63*; Vif TR-FRET: 3%; RanGTP-Impb inh: 0.0

How did CC(C)CC(C(=O)Nn1cnnc1)N1C(=O)c2ccccc2C1=O (stereo not drawn) do in these assays?
A1 inh: 2.3; Calb FLC: 0; LANA-H2A inh: -6.9; Beta cell apopt: 1; T cruzi repl: -25; Vif TR-FRET: 7%; RanGTP-Impb inh: 6.5

What do the screens show for `Cc1nc2scc(C)n2c(=O)c1S(=O)(=O)Nc1ccc(F)cc1`?
MLL AF4-AF9 inh: -3.7; A1 inh: 0.2; Calb FLC: 4; LANA-H2A inh: 4.6; Beta cell apopt: -1; T cruzi repl: 1; RanGTP-Impb inh: 1.4

How did Cc1ccc(NC(=O)CN(C)CCOc2ccccc2)c([N+](=O)[O-])c1 do in these assays?
MLL AF4-AF9 inh: 3.5; A1 inh: -2.2; Calb FLC: 5; LANA-H2A inh: 0.2; Beta cell apopt: -5; T cruzi repl: 2; Vif TR-FRET: 0%; RanGTP-Impb inh: -1.0

What do the screens show for `Cc1cc(C(=O)Nc2ncn(Cc3ccc(F)cc3)n2)ccc1[N+](=O)[O-]`?
MLL AF4-AF9 inh: 6.3; A1 inh: 0.8; Calb FLC: -1; LANA-H2A inh: 1.3; Beta cell apopt: -18; T cruzi repl: -4; RanGTP-Impb inh: 1.2

What do the screens show for `Cc1ccccc1C(=O)N1CCC(C(=O)Nc2cccc(S(=O)(=O)N3CCCCC3)c2)CC1`?
MLL AF4-AF9 inh: 2.8; A1 inh: 0.9; LANA-H2A inh: 2.1; Beta cell apopt: 2; Vif TR-FRET: -12%

What do the screens show for `CSc1ncc(OCc2ccccc2)c(=O)[nH]1`?
MLL AF4-AF9 inh: -0.6; A1 inh: 0.3; Calb FLC: 41; LANA-H2A inh: -3.1; Beta cell apopt: -5; RanGTP-Impb inh: 2.7

Results for O=C(Cc1ccccc1Cl)Nc1ccc(S(=O)(=O)Nc2nccs2)cc1 ?
MLL AF4-AF9 inh: 0.2; A1 inh: 1.7; Calb FLC: 4; LANA-H2A inh: 3.0; Beta cell apopt: -7; T cruzi repl: -10; RanGTP-Impb inh: 0.0

What do the screens show for `COc1ccc2cc(C#N)c(N3CCN(C(=O)c4ccccc4C)CC3)nc2c1`?
MLL AF4-AF9 inh: -2.0; A1 inh: 0.0; Calb FLC: -6; LANA-H2A inh: 2.3; Beta cell apopt: 4; T cruzi repl: 23; Vif TR-FRET: 11%; RanGTP-Impb inh: 31*

Compound activity: PubChem BioAssay, several laboratories
